# Assay outcomes: PubChem BioAssay, National Center for Advancing Translational Sciences (NCATS)
# miR-21 reporter: qHTS Assay for Modulators of miRNAs and/orActivators of miR-21; Potency, µM (titrated, usually from 38.3 µM), for the others: at the highest dose reporter change, positive = more light; HeLa miR-21 FLuc reporter, luciferase, 48 h; 340,000 tested, under 10 active; AID 2288, 2010; active = well fitted rising curve with a large enough effect; inconclusive = small, poorly fitted or top-dose-only effect; inactive = no such curve, though single readings can be large or run the other way;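 also: % of control where 0% means no effect; miR-21 action dims this reporter so a rising signal means less miR-21 action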
#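 HeLa miR-21-FLuc reporter line, endogenous miR-21; 2000 cells/well in DMEM/10% FBS; compound titration up to ~40uM final, 48 h, 37 degree Celsius; luciferase detection reagent, 15 min lysis, CCD luminescence.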
# Rango complex inh: qHTS Assay for Inhibitors of Rango (Ran-regulated importin-beta cargo) - Importin beta complex formation | AID 540263, 2011 | actives 0.031% (n = 340,000) | Potency, µM (highest dose often 92.2 µM), for the others: at the highest dose inhibition of complex formation | Rango CFP/YFP FRET sensor + importin beta, 45 min; active = rising FRET ratio curve, often small or poorly fitted; inconclusive = mostly compound fluorescence or quenching in the first reads; inactive = flat curves in all reads;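 also: potency is read from the fitted curve at half-maximal effect; 0% = DMSO wells and 100% = buffer wells lacking importin beta; nearly all actives have a fitted effect of over 15% in size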
# Target sequence (Q14974 whole entry, looked up): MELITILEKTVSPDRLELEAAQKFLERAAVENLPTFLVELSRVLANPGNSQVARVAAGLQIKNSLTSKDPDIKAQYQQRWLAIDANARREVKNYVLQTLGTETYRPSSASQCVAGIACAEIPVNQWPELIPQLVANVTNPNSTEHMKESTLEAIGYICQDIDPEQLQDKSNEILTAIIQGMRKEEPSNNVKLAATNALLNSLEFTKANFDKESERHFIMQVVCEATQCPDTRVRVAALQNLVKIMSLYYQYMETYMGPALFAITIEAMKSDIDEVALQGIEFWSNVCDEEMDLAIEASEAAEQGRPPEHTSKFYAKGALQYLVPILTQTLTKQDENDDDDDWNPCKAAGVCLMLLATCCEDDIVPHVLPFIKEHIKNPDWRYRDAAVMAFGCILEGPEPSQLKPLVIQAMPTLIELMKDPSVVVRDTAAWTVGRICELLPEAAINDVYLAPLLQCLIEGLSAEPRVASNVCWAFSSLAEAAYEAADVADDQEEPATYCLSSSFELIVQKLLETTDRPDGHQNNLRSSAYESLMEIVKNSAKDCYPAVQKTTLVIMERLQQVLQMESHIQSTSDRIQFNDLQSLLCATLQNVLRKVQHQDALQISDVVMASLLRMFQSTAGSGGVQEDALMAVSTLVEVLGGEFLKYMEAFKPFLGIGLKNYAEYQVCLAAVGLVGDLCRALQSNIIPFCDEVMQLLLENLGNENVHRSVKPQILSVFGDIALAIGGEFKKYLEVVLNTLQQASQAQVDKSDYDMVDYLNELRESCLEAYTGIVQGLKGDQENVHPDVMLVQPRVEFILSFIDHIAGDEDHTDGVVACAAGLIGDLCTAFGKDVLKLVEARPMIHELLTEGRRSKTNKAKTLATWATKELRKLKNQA
#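 FRET biosensor Rango (snurportin 1 IBB between N-terminal EYFP and C-terminal Cerulean), 50 nM in PBS/1 mM DTT/0.02% Tween-20/0.1% BSA, preincubated 5 min RT with compound; 0.125 microM importin beta added, 45 min RT, CFP/YFP FRET ratio read.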
# GLA inh pH 4.5: qHTS Assay for Inhibitors of Human alpha-Galactosidase at pH 4.5; purified enzyme, 4-MU-alpha-Gal fluorescence, pH 4.5; activity change, negative = inhibition, % at 105 µM; 230,000 tested, under 10 active; AID 1467, 2008; inconclusive = small, poorly fitted or top-dose-only inhibition, or a rising curve; inactive = flat fitted curve, though single readings scatter; no compound was filed as active;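 also: 0% = full activity with enzyme and -100% = basal without enzyme; dose as in the result columns while the protocol names 77 µM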
# Rango release inh: qHTS Assay for Inhibitors of RanGTP induced Rango (Ran-regulated importin-beta cargo) - Importin beta complex dissociation | Biochemical FRET Rango-importin beta, RanGTP-induced dissociation | Potency, µM (top dose mostly 46.1 µM), inactives show at the highest dose activity change, negative = inhibition | actives 0.071% (n = 340,000) | AID 540253, 2011; active means falling FRET ratio curve, often poorly fitted, with flat reads before Ran was added; inconclusive means other falling curves, or compound fluorescence or quenching; inactive means flat or rising ratio curve;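 also: potency is read from the fitted curve at half-maximal effect; % of control where 0% means no effect; nearly all actives have a fitted effect of over 45% in size; -100% = wells without RanGTP and RCC1; the record marks most hits as doubtful in a second field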
#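 Two FRET readings bracket the reaction: one 5 min after compound meets Rango–importin beta, another 45 min after RanGTP-RCC1 (0.6 uM Ran, 0.2 uM RCC1, 2 mM GTP) is added. Only the second defines inhibition.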
# Numbers without * were called inactive; u = inconclusive; x = not tested or not shown; & = joins results of further samples. This is a subset (hit frequency here may not be typical).
SMILES,miR-21 reporter,Rango complex inh,GLA inh pH 4.5,Rango release inh
CSCC[C@H](NC(=O)OC(C)(C)C)C(=O)N/N=C/c1ccc2nccnc2c1,-8%,-3.0%,1,-8%
O=C(CCc1nc2ccccc2c(=O)[nH]1)N1CCN(S(=O)(=O)c2ccc(Cl)c(C(F)(F)F)c2)CC1,x,-2.6%,x,0%
N#Cc1ccc(Oc2cccnc2)cc1C#N,-8%,-0.7%,-11,-7%
O=C(CSc1nnnn1C1CCCC1)Nc1ccccc1N1CCOCC1,-3%,-0.5%,-1,7%
COc1ccc(N(CC(=O)NCc2ccc3c(c2)OCO3)S(C)(=O)=O)cc1OC,-4%,7.8%,4,-9%
Nc1nc(Cl)c2ncn(C3OC(CO)C(O)C3O)c2n1 (stereo unspecified),x,0.3%,3,-6%
CSc1ccccc1NC(=O)CN(C)CC(=O)Nc1ccccc1F,-2%,-1.2%,7,5%
CSc1nnc(C)c(/C=C/NOCc2ccc(Cl)cc2)n1,-6%,-3.8%,-6,-11%
O=C(OCC(=O)N1CCc2ccccc21)[C@@H]1CC(O)CN1S(=O)(=O)c1ccccc1[N+](=O)[O-] (stereo partly specified),x,-1.3%,x,0%
CC(C)C(=O)Nc1ccccc1N1CCN(S(C)(=O)=O)CC1,-1%,1.5%,-2,9%
CCc1cc2c(Nc3ccc(O)cc3)nc(C)nc2s1,-2%,0.9%,x,19%
O=C(COc1ccc(-n2cnnn2)cc1)NC1CCCCC1,-6%,-1.2%,0,15%
CCOc1cc(/C=C2\SC(=NC)N(C)C2=O)cc(Cl)c1OC(C)=O,-8%,u,x,4.6µM*
Cc1ccc(NC(=S)N2CCCCCC2)cc1,-28%,0.6%,6,13%
CCn1cc(CNC(=O)/C=C/c2cnn(C)c2)c(C)n1,-9%,-1.0%,-1,8%
COC(=O)c1c(C)oc(C)c1S(=O)(=O)N1CCOCC1,0%,3.2%,0,8%
Cn1cccc1-c1cc(C(=O)N/N=C/c2ccc(F)cc2)[nH]n1,1%,4.5%,x,16%
COc1ccc(Nc2ccc(N3C(=O)CCC3=O)cc2[N+](=O)[O-])cn1,-2%,1.4%,-7,-7%
COc1ccc(-c2ccc3c(c2)[C@@H]2C[C@H](N(C)C(=O)C(C)(C)C)[C@H]([C@H](C)O)C(=O)N2CC3)cc1,x,-2.7%,x,-3%
CN1CCN(c2ncnc3c2cnn3-c2ccc(Cl)cc2)CC1,-32%,1.8%,-8,21%
Cc1sccc1/C=N/NC(=O)c1ccco1,-3%,4.4%,x,7%
O=C(O)CSCC(=O)N1CCN(Cc2ccc3c(c2)OCO3)CC1,-1%,0.2%,x,2%
CC1(C)Oc2ccc3ccc(=O)oc3c2/C(=C/NNC(N)=S)C1=O,-6%,1.2%,x,-7%
CC(=O)Nc1ccc(NC(=O)C2CC(=O)Nc3nc4ccccc4n32)cc1 (stereo unspecified),-3%,-1.9%,-2,-6%
COCCCNC(=O)CCC(=O)NNc1nc2ccccc2c2nc(C)nn12,-1%&0%,0.7%,-1,-13%
SMILES,miR-21 reporter,Rango complex inh,GLA inh pH 4.5,Rango release inh
COc1ccc(-n2nc3c(N4CCC(C(=O)NCCc5ccccc5C)CC4)nnc(C)c3c2C)cc1,-2%,-4.9%,x,23%
Cc1ccc(C(=O)N2CCCC2)cc1S(=O)(=O)Nc1ccccc1,-4%,1.1%,-13,0%
CCC1(O)C(=O)OCc2c1cc1n(c2=O)Cc2cc3c(N)cccc3nc2-1 (stereo unspecified),x,2.5%,x,-13%
CCCc1cc(=O)[nH]c(SCC(=O)c2cc(C)n(C(C)COC)c2C)n1 (stereo unspecified),-7%,u,0,-8%
S=c1[nH]nc(CSCc2ccccc2Cl)n1-c1ccccc1,-20%,4.1%,11,-8%
Cc1cc2ccccn2c1C(=O)c1ccc(Cl)c([N+](=O)[O-])c1,3%,0.6%,-4,15%
O=C(c1cccc(S(=O)(=O)NCc2ccccc2)c1)N1CCCCC1,x,-1.3%,x,6%
COC(=O)c1ccc(C(=O)OC)c(NC(=O)/C=C/C(=O)O)c1,-7%,u,6,-17%
CCc1ccc(N2CC(C(=O)OCC(=O)Nc3ccc(C#N)cc3)CC2=O)cc1 (stereo unspecified),x,-1.1%,x,-10%
CCC(=O)NC(=S)NNC(=O)c1ccc(O)cc1,0%,-1.8%,3,-11%
CC1=C(C#N)C(NC(=O)C(C)(C)C)(C(F)(F)F)C(=O)N1 (stereo unspecified),-3%,-1.5%,-28,2%
CCC(=O)Nc1nnc(-c2ccc(Cl)s2)o1,-4%,5.8%,-3,-8%
COc1ccc(NC(=O)Cc2ccc(C)cc2)cc1S(=O)(=O)N1CCCCC1,x,0.8%,x,-5%
COc1cccc(OCc2nc3ccccc3[nH]2)c1,-44%,-0.3%,0,13%
O=C(Nc1ccc(-c2cn3ccsc3n2)cc1)C1COc2ccccc2O1 (stereo unspecified),23%,0.7%,-2,14%
COC(=O)C1=C(C)N(Cc2ccccc2)C(=NCCc2c[nH]c3ccccc23)N[C@H]1c1cccc(C(F)(F)F)c1,u,u,x,0%
CCOC(=O)C1CCN(CC(=O)Nc2c(C(=O)OC)n(C)c3cccc(C)c23)CC1,-13%,-0.4%,7,50%
Cc1[nH]c(=O)[nH]c(=O)c1S(=O)(=O)Nc1cccc([N+](=O)[O-])c1C,0%,-2.2%,x,-7%
S=C(Nc1ccccc1)Nc1cccc(Cl)c1Cl,-3%,-0.1%,1,20%
COC(=O)CCCC1=CC2=CC(=O)C(C)(OC(=O)c3cccs3)C(=O)C2=CN1Cc1ccc2c(c1)OCO2 (stereo unspecified),7%,4.9%,5&-11,-3%
CCc1nc2ccccc2c(C(=O)Nc2ccc(F)cc2)c1C,0%,-4.3%,x,32%
CC(C)N(C)C1CCN(C(=O)Nc2ccc(Cl)cc2)CC1,-8%,-1.3%,5,-13%
Cc1cc(C)n(C(=O)CNC(=O)c2ccc3c(c2)OCCO3)n1,-18%,0.2%,-3,u
COc1ccccc1OCC(=O)N(Cc1nc(-c2ccccc2)no1)C1CCCCC1,0%,1.9%,-6,-3%
COc1ccc(CCN2CCCC(CN(C)Cc3cccc(OC)c3)C2)cc1 (stereo unspecified),-1%,-3.2%,x,-21%

# Entries of single compounds from above.
# Entry for `S=C(Nc1ccccc1)Nc1cccc(Cl)c1Cl` = miR-21 reporter: -3%; Rango complex inh: -0.1%; GLA inh pH 4.5: 1; Rango release inh: 20%
# Entry for `S=c1[nH]nc(CSCc2ccccc2Cl)n1-c1ccccc1` = miR-21 reporter: -20%; Rango complex inh: 4.1%; GLA inh pH 4.5: 11; Rango release inh: -8%

# Carrying on.
SMILES,miR-21 reporter,Rango complex inh,GLA inh pH 4.5,Rango release inh
O=C(COC(=O)c1ccccc1Cl)NC1CCCCCC1,x,-1.7%,x,25%
Cc1ccc(OCC(=O)N2CC(C)OC(C)C2)c([N+](=O)[O-])n1 (stereo unspecified),-2%,-5.7%,-14,-10%
CCCCN(C(=O)c1ccc(C)o1)c1c(N)n(CCCC)c(=O)[nH]c1=O,x,4.9%,x,-7%
COc1ccc2ncccc2c1Cc1c(OC)ccc2ncccc12,x,0.6%,x,0%
CC1=C(C(=O)Nc2ccccc2C)C2(CCCC2)C(C(N)=O)C(=O)N1 (stereo unspecified),0%,0.0%,-8,0%
COc1ccc(/C=N/NC(=O)CCC(=O)Nc2ccc(F)cc2)c(OC)c1,-1%,0.1%,x,-7%
O=C(NCCCN1CCc2ccccc2C1)C1CCN(S(=O)(=O)N2CCC3(CC2)OCCO3)CC1,-1%,-0.8%,7,17%
O=C(CCCn1c(=S)[nH]c2cc3c(cc2c1=O)OCO3)NCc1ccccc1Cl,-3%,2.8%,x,16%
COc1ccc(C(=O)N2CCNC(=O)C2CC(=O)Nc2ccc(C)c(C)c2)cc1 (stereo unspecified),0%,-0.1%,x,-11%
NNC(=O)c1cccc(S(=O)(=O)Nc2cccc(C(F)(F)F)c2)c1,-15%,-6.4%,3,-1%
Fc1ccc(OCCCn2ccnc2)cc1,0%,-0.4%,x,15%
COc1ccc(-c2[nH]ncc2-c2cnn(-c3ccccc3)c2)c(O)c1,-8%,3.5%,-1,1%
CC(C)(C)OC(=O)[C@H](Cc1ccccc1)NC(=O)c1nc[nH]c1C(=O)N1CCN(c2ccccc2)CC1,6%,1.2%,x,6%
C=CCn1c(=O)[nH]c2cc(C(=O)N3CCN(c4cc(C)ccc4C)CC3)ccc2c1=O,8%,1.1%,4,7%
Brc1c(-c2ccc3c(c2)OCO3)nc2ncccn12,-41%,-5.2%,0,0%
CCOC(=O)N1CCC(c2[nH][nH]c(=O)c2C)CC1,-1%,0.3%,-5,25%
O=C(CNc1ccccc1)N/N=C/c1ccc2c(c1)OCO2,-22%,1.0%,-5,-3%
CC1=C(C(=O)O)N2C(=O)C(NC(=O)c3nn(C)cc3[N+](=O)[O-])C2SC1 (stereo unspecified),1%,3.3%,5,2%
Cc1nnc(SCC(=O)NCC2CCCO2)n1-c1ccccc1 (stereo unspecified),1%,-0.7%,3,8%
N/C(=N\OC(=O)COc1ccc(Cl)cc1)c1ccc(Cl)cc1,-1%,-1.0%,3,13%
c1ccc2c(c1)CCNC2c1ccncc1 (stereo unspecified),-1%,0.3%,-3,10%
Cc1c(C(=O)N2CCCCC2)oc2ccc(S(=O)(=O)N3CC(C)CC(C)C3)cc12 (stereo unspecified),22%,-3.3%,-2,-9%
Cc1ccc2oc(=O)c3cc(C(=O)N4CCN(C(=O)c5ccco5)CC4)sc3c2c1,-1%,x,3,x
O=C1[C@@H]2C(c3ccc(F)cc3)=NO[C@@H]2C(=O)N1Cc1ccccc1,-1%,0.1%,-19,-5%
CC1CCN(C(=O)CSc2nc3ccccc3c(=O)n2Cc2ccc3c(c2)OCO3)CC1,8%,-4.1%,-8,4%
SMILES,miR-21 reporter,Rango complex inh,GLA inh pH 4.5,Rango release inh
Cc1ccccc1NC(=O)C12CC3CCC1(C)C3(C)CO2 (stereo unspecified),-5%,0.5%,-3,-6%
C(=C\c1nc2ccccc2[nH]1)/c1ccccc1,20%,-3.2%,6,8%
CCCOc1cccc(C2C(C(=O)c3cccs3)=C(O)C(=O)N2Cc2cccnc2)c1 (stereo unspecified),-4%,12%,3,3%
CCn1nnnc1SCC(=O)N1CCN(c2ccccc2)CC1,-6%,-2.0%,2,-8%
Cc1ccc(NC(=O)Cc2ccc(Cl)c(Cl)c2)cc1S(=O)(=O)N(C)C,15%,-2.7%,-9,-1%
CCCCC(=O)Nc1nnc(S(=O)(=O)N(CC)c2ccc(OC)cc2)s1,0%,-0.7%,x,8%
COc1ccc(S(=O)(=O)N(C)c2ccccc2)c2cccnc12,-10%,-1.4%,x,1%
CC(C)(C)N(Cc1ccccc1)C(=O)COC(=O)C1CCCCC1,x,1.5%,x,6%

# Compounds listed so far with a nitro group on carbon (six):
SMILES,miR-21 reporter,Rango complex inh,GLA inh pH 4.5,Rango release inh
O=C(OCC(=O)N1CCc2ccccc21)[C@@H]1CC(O)CN1S(=O)(=O)c1ccccc1[N+](=O)[O-] (stereo partly specified),x,-1.3%,x,0%
COc1ccc(Nc2ccc(N3C(=O)CCC3=O)cc2[N+](=O)[O-])cn1,-2%,1.4%,-7,-7%
Cc1cc2ccccn2c1C(=O)c1ccc(Cl)c([N+](=O)[O-])c1,3%,0.6%,-4,15%
Cc1[nH]c(=O)[nH]c(=O)c1S(=O)(=O)Nc1cccc([N+](=O)[O-])c1C,0%,-2.2%,x,-7%
Cc1ccc(OCC(=O)N2CC(C)OC(C)C2)c([N+](=O)[O-])n1 (stereo unspecified),-2%,-5.7%,-14,-10%
CC1=C(C(=O)O)N2C(=O)C(NC(=O)c3nn(C)cc3[N+](=O)[O-])C2SC1 (stereo unspecified),1%,3.3%,5,2%

# In another format: two of the compounds above.
# Below each compound: miR-21 reporter | Rango complex inh | GLA inh pH 4.5 | Rango release inh
CCCCC(=O)Nc1nnc(S(=O)(=O)N(CC)c2ccc(OC)cc2)s1
    0% | -0.7% | x | 8%
CC(C)(C)N(Cc1ccccc1)C(=O)COC(=O)C1CCCCC1
    x | 1.5% | x | 6%
